StopGo reporter: lowers the luciferase signal of an FMDV 2A StopGo reporter. human cells with a luciferase reporter of 2A StopGo recoding; control for the full effect not named in the record. Potency, µM (doses to about 57.9 µM), without a hit: top-dose signal change, negative = less light. 410,000 tested, 1.2% active. AID 1159524; active = well fitted falling curve with a large enough effect; inconclusive = small, poorly fitted or top-dose-only effect; inactive = no such curve, though single readings can be large or run the other way; tested in HEK293T cells; also: % is scaled to controls: 0 for no effect and ±100 for the full control effect; nearly all actives have a fitted effect of over 45% in size; luciferase light after 4 h
Cruzain inh Det: inhibitors of Trypanosoma cruzi cruzain with detergent | P25779 | purified cruzain, Z-FR-AMC fluorescence, 0.01% Triton | Potency, µM, inactives show max response, negative = inhibition, most hits filed as inhibitors | 200,000 tested, 0.43% active; active = well fitted curve in the direction sought with a large enough effect; inconclusive = small, poorly fitted or top-dose-only effect, or another doubt; inactive = no such curve, though single readings can be large; an effect the other way counts as inactive or inconclusive;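 also: plate controls were neutral wells for no effect and buffer without enzyme for full effect; nearly all actives have a fitted effect of over 40% in size; top concentration of the series not given in the record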
Target sequence (P25779 123-467 limits assumed): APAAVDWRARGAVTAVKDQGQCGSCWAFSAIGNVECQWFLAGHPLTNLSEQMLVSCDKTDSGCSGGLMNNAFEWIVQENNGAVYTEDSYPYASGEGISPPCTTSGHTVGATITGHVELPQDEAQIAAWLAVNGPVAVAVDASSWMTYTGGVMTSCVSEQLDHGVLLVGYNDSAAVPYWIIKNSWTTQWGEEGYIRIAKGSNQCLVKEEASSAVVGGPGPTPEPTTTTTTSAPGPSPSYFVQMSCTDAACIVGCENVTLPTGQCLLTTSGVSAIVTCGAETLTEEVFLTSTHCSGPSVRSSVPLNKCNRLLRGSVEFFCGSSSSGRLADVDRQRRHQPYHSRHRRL
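Z-FR-AMC hydrolysis (2 uM substrate) by cruzain (1.5 nM) monitored kinetically at ex 360/em 450 nm after 15 min room-temperature compound exposure; 0.01% Triton X-100, pH 5.5, 5 mM DTT.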
RE007 growth inh: less growth of the S. pombe RE007 Vpr strain; S. pombe RE007 Vpr strain, BacTiter-Glo ATP luminescence, 24 h; control for the full effect not named in the record; Potency, µM (highest dose often 92.2 µM), for the others: at the highest dose activity change, negative = less growth; 360,000 tested, 0.21% active; AID 651644; active = well fitted falling curve with a large enough effect; inconclusive = small, poorly fitted or top-dose-only effect; inactive = no such curve, though single readings can be large or run the other way;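 also: % is scaled to controls: 0 for no effect and ±100 for the full control effect; nearly all actives have a fitted effect of over 50% in size; the assay follows cell death caused by Vpr and the record does not say whether a fall means rescue or toxicity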
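Fission yeast RE007 carrying one integrated HIV-1 vpr copy, seeded at OD 0.01 in PMG+AL medium with 23 nL pinned compound. Grown 24 h at 30 degrees; viability read by BacTiter-Glo luminescence after 5 min.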
NS1 inh: influenza NS1 inhibition; Potency, µM (highest dose often 46.1 µM), for the others: at the top dose activity, positive = more growth; 270,000 tested, 0.4% active; AID 2326; S. cerevisiae slowed by influenza A NS1, growth recovery by OD600; also: actives are rising curves; nearly all actives have a fitted effect of over 50% in size
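Compounds were scored for reversing the slow growth caused by influenza A NS1 in S. cerevisiae, measured by optical density at 600 nm. Assay medium contained 2% galactose at pH 6.0; NS1-free yeast of the same strain were the positive control.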
Cruzain inh noDet: cruzain (T. cruzi) inhibition without detergent; P25779; purified cruzain, Z-FR-AMC fluorescence, no detergent; Potency, µM, for inactives: max response, negative = inhibition, usual class: inhibitors; 200,000 tested, 2.3% active; active = well fitted curve in the direction sought with a large enough effect; inconclusive = small, poorly fitted or top-dose-only effect, or another doubt; inactive = no such curve, though single readings can be large; an effect the other way counts as inactive or inconclusive;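 also: plate controls were enzyme without inhibitor for no effect and buffer without enzyme for full effect; nearly all actives have a fitted effect of over 40% in size; top concentration of the series not given in the record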
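Detergent-free condition (0.00005% Triton X-100) in acetate buffer pH 5.5 with DTT. 1.5 nM enzyme and compound were pre-mixed 15 min, then 2 uM Z-FR-AMC substrate added; reaction progress from fluorescence change between first and third reads (60 s).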
SARS PLpro yeast: inhibitors of SARS-CoV papain-like protease in yeast; 330,000 tested, 0.19% active; AID 485353; S. cerevisiae expressing SARS-CoV PLpro, growth rescue; control for the full effect not named in the record; Potency, µM (doses to about 32.9 µM), without a hit: top-dose activity, positive = growth rescue; also: 0% is about no effect; nearly all actives have a fitted effect of over 55% in size; growth read by luminescence after 48 h
MARV entry inh: inhibitors of Marburg virus binding or cell entry | Marburg virus pseudotyped entry inhibition, cell reporter; control for the full effect not named in the record; about a third of the inactives were read at about 46 µM | Potency, µM (highest dose often 37.8 µM), inactives show at the top dose activity change, negative = inhibition, usual class: inhibitors | 300,000 tested, 1.8% active; active = well fitted inhibition curve with a large enough effect; inconclusive = small, poorly fitted or top-dose-only effect, or effect the other way; inactive = flat fitted curve, though single readings scatter; tested in HEK293 cells; about a fifth of its hits are not listed in these tables; also: % is scaled to controls: 0 for no effect and ±100 for the full control effect; luciferase read-out
LASV entry inh: Lassa virus entry inhibition. Lassa virus pseudotype entry inhibition, cell reporter; control for the full effect not named in the record. Potency, µM (series often up to 37.9 µM), for inactives: at the highest dose activity change, negative = inhibition, most hits filed as inhibitors. 300,000 tested, 1.2% active. AID 540256; active means well fitted inhibition curve with a large enough effect; inconclusive means small, poorly fitted or top-dose-only effect, or effect the other way; inactive means flat fitted curve, though single readings scatter; tested in HEK293 cells; also: % is scaled to controls: 0 for no effect and ±100 for the full control effect; nearly all actives have a fitted effect of over 50% in size; luciferase read-out
* = called active by the depositor; [ ] = remark or other dose. Unless noted, calls follow the shape of the dose curve; as a rule, active means well fitted rising curve with a large enough effect; inconclusive means small, poorly fitted or top-dose-only effect; inactive means no such curve, though single readings can be large or run the other way. Potency is read from the fitted curve at half-maximal effect.

CCCc1nn(C)c2c(=O)[nH]c(-c3cc(S(=O)(=O)Nc4ccc(NC(C)=O)cc4)ccc3OCC)nc12 was read as StopGo reporter 11%, RE007 growth inh 8%, NS1 inh -5% and SARS PLpro yeast 0%.
`CC1CCCCC1NC(=O)Cn1c(=O)cnc2ccccc21` (stereo unspecified) gave StopGo reporter 2%, RE007 growth inh 1%, SARS PLpro yeast 13%, MARV entry inh 15%[46.1 µM] and LASV entry inh 16%[46.1 µM].
O=C(C1CCC1)N1CCc2cc(S(=O)(=O)NCc3cccnc3)ccc21 was read as StopGo reporter -13%, Cruzain inh Det -2.1%, RE007 growth inh 1%, NS1 inh -5%, Cruzain inh noDet -9%, SARS PLpro yeast 0%, MARV entry inh -25%[46.1 µM] and LASV entry inh inconclusive.
For Cc1c(Cl)cccc1-n1ncc(C(=O)NCc2cccs2)c1C1CCN(C(=O)OC(C)(C)C)CC1 the results were StopGo reporter 0%, Cruzain inh Det -4.7%, Cruzain inh noDet 8% and LASV entry inh inconclusive.
Cc1cccc2c1-c1sc(C(=O)NCCCN3CCC(C)CC3)cc1CO2 was read as StopGo reporter -11%, RE007 growth inh 0%, NS1 inh 3% and SARS PLpro yeast 15%.
`Cc1cccc(N(C)S(=O)(=O)c2nnc(NC(=O)C(C)(C)C)s2)c1` gave StopGo reporter -16%, Cruzain inh Det 1.1%, Cruzain inh noDet -2% and LASV entry inh 9%[46.1 µM].
Screening CCN1CCN(c2cc(C)c3cc(NC(=O)Cc4ccc(OC)c(OC)c4)ccc3n2)CC1 returned StopGo reporter -6%, Cruzain inh Det 0.7%, RE007 growth inh -10%, NS1 inh -3%, Cruzain inh noDet -11%, SARS PLpro yeast -1% and MARV entry inh -2%.
`Cc1ccc(C)c(NC(=O)C(Sc2nc3ccc(C)cc3[nH]2)c2ccccc2)c1` (stereo unspecified) gave StopGo reporter inconclusive, Cruzain inh Det 2.8%, RE007 growth inh 1%, NS1 inh inconclusive, Cruzain inh noDet inconclusive, SARS PLpro yeast -5%, MARV entry inh 8.9µM* and LASV entry inh inconclusive.
`Cc1ccc(S(=O)c2ccc(NC(=O)C3CC3)cc2C#N)cc1` (stereo unspecified) gave StopGo reporter inconclusive, RE007 growth inh -1%, SARS PLpro yeast -1%, MARV entry inh 2%[46.1 µM] and LASV entry inh inconclusive.
For CCC1(CC)NC(=O)N(CC(=O)OC(C)C(=O)Nc2ccc(Cl)cn2)C1=O (stereo unspecified) the results were StopGo reporter 10%, RE007 growth inh -17%, SARS PLpro yeast -2%, MARV entry inh 27% and LASV entry inh -6%.
`CCOP(=O)(OCC)C(NC(=O)c1cc([N+](=O)[O-])cc([N+](=O)[O-])c1)C(F)(F)F` (stereo unspecified) gave StopGo reporter -18%, RE007 growth inh 2%, NS1 inh 5%, SARS PLpro yeast -1%, MARV entry inh -22%[46.1 µM] and LASV entry inh 2%[46.1 µM].
Screening NC1=NC(=O)/C(=C\C=C\c2ccccc2)S1 returned StopGo reporter 2%, Cruzain inh Det 3.5%, RE007 growth inh 7%, NS1 inh 12%, Cruzain inh noDet inconclusive, SARS PLpro yeast 8%, MARV entry inh -1% and LASV entry inh -4%.
For Cc1cc(Cl)nc(Cl)c1C(=O)NCc1ccc(Cl)cc1 the results were StopGo reporter -14%, RE007 growth inh -6%, NS1 inh 0% and SARS PLpro yeast -2%.
Screening COc1ccc(S(=O)(=O)N(CC(=O)NCC2CCCO2)Cc2ccccc2)cc1 (stereo unspecified) returned StopGo reporter -3%, RE007 growth inh 11%, NS1 inh -6%, SARS PLpro yeast 1%, MARV entry inh 14%[46.1 µM] and LASV entry inh inconclusive.
Screening COc1ccc(NS(=O)(=O)c2cc(NC(=O)CC3CCCC3)ccc2N2CCOCC2)cc1 returned StopGo reporter 42%[activator], RE007 growth inh -11%, SARS PLpro yeast 0%, MARV entry inh inconclusive and LASV entry inh inconclusive.
`CC(=O)Nc1ccc(N2CCOCC2)c([N+](=O)[O-])c1` gave StopGo reporter -17%, RE007 growth inh -3%, NS1 inh 10%, SARS PLpro yeast 0%, MARV entry inh 13%[46.1 µM] and LASV entry inh -2%[46.1 µM].
For Nc1nc(COc2ccc(F)cc2)nc(N2CCCCC2)n1 the results were StopGo reporter 15%, RE007 growth inh 16%, SARS PLpro yeast -1%, MARV entry inh 19%[46.1 µM] and LASV entry inh 12%.
O=C(c1cc(-c2cccnc2)nc2ccccc12)N1CCN(S(=O)(=O)c2ccc(Cl)s2)CC1 was read as StopGo reporter -6%, RE007 growth inh 7%, MARV entry inh -55% and LASV entry inh 3%.
`Cc1cc(C)c(Cc2c(C)nc3c(C(=O)NCc4ccco4)cnn3c2C)c(C)c1` gave StopGo reporter 18µM*, Cruzain inh Det -28%, RE007 growth inh 0%, NS1 inh 12%, Cruzain inh noDet -18%, SARS PLpro yeast -17%, MARV entry inh inconclusive and LASV entry inh -15%.
O=C(CSc1nccn1C1CCCC1)Nc1cc(C(F)(F)F)ccc1Cl was read as StopGo reporter -19%, Cruzain inh Det -3.0%, Cruzain inh noDet 10% and LASV entry inh 7%[46.1 µM].
`O=C(c1ccco1)N1CCN(C(=O)c2ccc(COc3ccc4c(c3)CCC4)o2)CC1` gave StopGo reporter inconclusive, Cruzain inh Det -7.5%, RE007 growth inh -11%, NS1 inh -45%, Cruzain inh noDet inconclusive, SARS PLpro yeast 0%, MARV entry inh inconclusive and LASV entry inh 14µM*.
For COc1ccc2cc(CCNC(=O)c3cccs3)c(=O)[nH]c2c1 the results were StopGo reporter 50%[activator], Cruzain inh Det -5.7%, RE007 growth inh 6%, NS1 inh 4%, Cruzain inh noDet 6%, SARS PLpro yeast -8%, MARV entry inh -23% and LASV entry inh inconclusive.
Screening CC(C)(C)S(=O)(=O)c1cnc(-c2ccccn2)nc1N returned StopGo reporter 43%[activator], RE007 growth inh 17%, NS1 inh 6%, SARS PLpro yeast 2%, MARV entry inh -1%[46.1 µM] and LASV entry inh inconclusive.
Screening CC(=O)NC12CC3CC(C1)CC(C(=O)N1CCN(S(=O)(=O)c4cccc(F)c4)CC1)(C3)C2 returned StopGo reporter inconclusive, RE007 growth inh -5%, NS1 inh 0%, SARS PLpro yeast -8%, MARV entry inh -21% and LASV entry inh 8%.
Screening N/C(=N\OC(=O)CCC1CCCC1)c1cccnc1 returned StopGo reporter -17%, Cruzain inh Det 0.9%, RE007 growth inh 19%, NS1 inh -6%, Cruzain inh noDet 2%, SARS PLpro yeast -10%, MARV entry inh inconclusive and LASV entry inh 3%.
`CCOC(=O)N1CCN(CC(=O)N2c3ccccc3CC2C)CC1` (stereo unspecified) gave StopGo reporter 0%, Cruzain inh Det 2.2%, RE007 growth inh 0%, NS1 inh 5%, Cruzain inh noDet 10%, SARS PLpro yeast 0%, MARV entry inh 3% and LASV entry inh 0%.
COc1ccc(-c2cc(C)no2)cc1S(=O)(=O)Nc1cccc(CN2CCCC2)c1 was read as StopGo reporter 4%, RE007 growth inh 15%, NS1 inh 10% and SARS PLpro yeast 3%.
`COc1ccc2oc(=O)c(-c3csc(/C(C#N)=C/c4ccc(F)cc4)n3)cc2c1` gave StopGo reporter -6%, Cruzain inh Det 0.9%, Cruzain inh noDet -9% and LASV entry inh -11%[46.1 µM].
Screening CCOc1ccc(CN2CCN(CC3=Cc4cccc(OC)c4OC3)CC2CCO)cc1 (stereo unspecified) returned StopGo reporter inconclusive, RE007 growth inh -2%, NS1 inh -1% and SARS PLpro yeast 0%.
Screening COc1ccc(C(=O)NC(=S)NCc2cccnc2)cc1Br returned StopGo reporter -17%, RE007 growth inh -8%, NS1 inh -3% and SARS PLpro yeast 15%.
For CN1CCC(N(C)C(=O)/C=C/c2cn(-c3ccccc3)nc2-c2cccs2)CC1 the results were StopGo reporter -27%, RE007 growth inh -3%, SARS PLpro yeast 3%, MARV entry inh inconclusive and LASV entry inh inconclusive.
COC(=O)c1ccccc1NC(=O)CN1CCN(C(=O)c2ccco2)CC1 was read as StopGo reporter -28%, Cruzain inh Det 0.6%, RE007 growth inh 9%, NS1 inh -8%, Cruzain inh noDet -2%, SARS PLpro yeast 2%, MARV entry inh -9%[46.1 µM] and LASV entry inh 18%.
Screening CC(=O)Nc1ccc(S(=O)(=O)Oc2ccc(/C=C3\SC(N)=NC3=O)cc2)cc1 returned StopGo reporter -19%, RE007 growth inh -10%, SARS PLpro yeast 1%, MARV entry inh inconclusive and LASV entry inh -9%.
COc1cc(CCC(N)c2cccc(O)c2)cc(OC)c1OC (stereo unspecified) was read as StopGo reporter -21%, RE007 growth inh -3%, MARV entry inh 10% and LASV entry inh inconclusive.
Screening c1ccc(SSc2ccccc2)cc1 returned StopGo reporter -30%, Cruzain inh Det -1.9%, RE007 growth inh -2%, NS1 inh -5%, Cruzain inh noDet -3%, SARS PLpro yeast 4%, MARV entry inh -19% and LASV entry inh 2%.
`CCCOc1ccc(OC(=O)Cc2ccc(OC)c(S(=O)(=O)N3CCOCC3)c2)cc1` gave StopGo reporter 2%, RE007 growth inh 16%, SARS PLpro yeast 7%, MARV entry inh -9% and LASV entry inh -17%.
`O=C(CSc1nnc(NC(=O)C2CC(=O)N(c3ccccc3)C2)s1)NC1CCCC1` (stereo unspecified) gave StopGo reporter -24%, RE007 growth inh -4%, NS1 inh -4%, SARS PLpro yeast -5%, MARV entry inh 9% and LASV entry inh 18%.
Screening O=C(COC(=O)/C=C/c1cccc(Cl)c1)NCCc1ccccc1 returned StopGo reporter -27%, Cruzain inh Det -4.9%, RE007 growth inh 2%, NS1 inh -19%, Cruzain inh noDet -4%, SARS PLpro yeast -23%, MARV entry inh inconclusive and LASV entry inh 8%.
CCOC(=O)c1oc2cccc(OC(C)=O)c2c1C was read as StopGo reporter 34%[activator], Cruzain inh Det 3.0%, RE007 growth inh -17%, NS1 inh -81%, Cruzain inh noDet -8%, SARS PLpro yeast 4%, MARV entry inh 23% and LASV entry inh 8%.
Screening OCCC1CN(Cc2cccn2-c2nccs2)CCN1Cc1ccc(F)c(F)c1 (stereo unspecified) returned StopGo reporter -11%, RE007 growth inh 7%, NS1 inh 2%, SARS PLpro yeast 1%, MARV entry inh -21%[46.1 µM] and LASV entry inh -11%.
